Screening results from PubChem.
AF4-AF9 inh: blocks AF4 peptide binding to human AF9 | P42568 | 350,000 compounds, 0.47% hits | inhibition, % at 10 µM | AlphaScreen, biotin-AF4 peptide binding to FLAG-AF9;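 active means every replicate reaching a set inhibition limit, whatever the replicate mean, cut at about 25% in these data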;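 further: 0% = plate neutral control median and 100% = total signal loss; the record names both 10 and 1 µM as test concentration; the first replicate is given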
Target sequence (P42568 whole entry, looked up): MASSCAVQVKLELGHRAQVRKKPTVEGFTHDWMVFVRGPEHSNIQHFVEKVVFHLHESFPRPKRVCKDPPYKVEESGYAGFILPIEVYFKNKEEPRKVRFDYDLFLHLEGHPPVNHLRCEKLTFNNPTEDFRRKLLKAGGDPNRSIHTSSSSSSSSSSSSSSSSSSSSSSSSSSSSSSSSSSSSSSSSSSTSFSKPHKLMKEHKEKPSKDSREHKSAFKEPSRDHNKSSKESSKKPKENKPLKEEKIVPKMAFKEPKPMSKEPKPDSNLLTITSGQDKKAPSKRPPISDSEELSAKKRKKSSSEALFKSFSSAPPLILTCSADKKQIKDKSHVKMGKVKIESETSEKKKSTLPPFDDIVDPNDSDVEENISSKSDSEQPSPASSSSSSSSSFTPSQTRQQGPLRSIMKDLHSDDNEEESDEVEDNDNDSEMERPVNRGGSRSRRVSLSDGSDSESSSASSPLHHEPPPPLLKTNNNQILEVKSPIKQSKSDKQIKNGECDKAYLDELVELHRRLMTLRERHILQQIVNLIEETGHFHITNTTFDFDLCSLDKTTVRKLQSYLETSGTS
Ecoli rRNA inh: inhibitors of bacterial rRNA selective over humanized ribosomes. E. coli WT GFP vs humanized-ribosome RFP mutants, fluorescence, 24 h; stronger effect = lower value; DMSO median 0, no signal -100. 350,000 compounds, 1.6% hits. AID 720706. GFP signal change (wild-type ribosome), % (test concentration not listed);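 active means significant combined selectivity score with lowered wild-type GFP, culture density cut under 30%, mutant RFP and density less affected; inactive means any of these conditions unmet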; further: one replicate is shown; some compounds called inactive have numbers as strong as hits
FGF22 binding: binders of recombinant human FGF22 by thermal shift. SYPRO orange fluorescence; percent of sucrose octasulfate shift, DMSO zero. calls only at 9.99 µM. 340,000 compounds, 1.5% hits. AID 651658. Q9HCT0;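 active means melting point raised past a set limit in the mean and every replicate; three in four hits are not shown here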
Target sequence (Q9HCT0 whole entry, looked up): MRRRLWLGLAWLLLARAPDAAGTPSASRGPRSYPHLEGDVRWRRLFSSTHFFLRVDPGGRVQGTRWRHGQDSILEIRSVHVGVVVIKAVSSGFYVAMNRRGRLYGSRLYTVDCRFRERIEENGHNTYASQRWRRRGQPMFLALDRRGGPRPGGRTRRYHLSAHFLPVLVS
Ecoli rRNA inh OD600: second read-out of Ecoli rRNA inh, no call of its own (marks repeat the call); OD600 change, %; measured here: OD600 growth;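 optical density of the mix in the first replicate; 0 = DMSO median and -100 = no signal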
Ecoli rRNA inh RFP: recorded beside Ecoli rRNA inh, whose call it bears; RFP signal change, %; measured here: RFP humanized mutant strains;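 first replicate; 0 = DMSO median and -100 = no signal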
The depositor's hits bear a star; i = inactive; x = not tested or not shown; & = joins results of further samples. This is a subset; the hit share may differ from the screen's.

AF4-AF9 inh,Ecoli rRNA inh,molecule,Ecoli rRNA inh OD600,Ecoli rRNA inh RFP,FGF22 binding
-1.5,9,O=C(CCCCC(=O)NN=Cc1ccc(Cl)cc1)NN=Cc1ccc(Cl)cc1,12,3.5,i
1.5,1,COc1ccccc1CNc1nc(NCCN2CCNC2=O)c2sccc2n1,9,-2.0,i
0.3,-4,O=C(Cc1ccc(NC(=O)C2CCN(C(=O)c3ccccc3)CC2)cc1)Nc1cccc(C(=O)N2CCCCC2)c1,10,3.3,x
-1.1,1,Cc1noc(C)c1NC(=O)N(C)C[C@@H]1OCCCC[C@H](C)Oc2ccc(NC(=O)Nc3ccc(F)cc3)cc2C(=O)N([C@@H](C)CO)C[C@H]1C,3,2.1,i
-1.8,3,COc1ccccc1-c1cn(CC[C@H]2CC[C@H](NC(=O)C3CCOCC3)[C@@H](CO)O2)nn1,6,-1.4,i
1.8,-4,CN1CCN(C(=O)C[C@H]2CC[C@@H]3[C@H](COC[C@@H](O)CN3Cc3ccc(Oc4ccccc4)cc3)O2)CC1,-8,-0.7,i
-1.7,0,COc1cccc(-c2cnc3c(c2)C(=O)N([C@H](C)CO)C[C@H](C)[C@@H](CN(C)C(C)=O)O3)c1,5,-2.4,i
-6.3,-1,O=S(=O)(Cc1ccccc1)N1CCCCN2[C@H](CO)[C@@H](c3ccc(-c4ccc(F)cc4)cc3)[C@@H]2C1,-25,21,i
0.9,-2,CCCN(C)C[C@@H]1OCCCC[C@H](C)Oc2ccc(NC(=O)Nc3cccc4ccccc34)cc2C(=O)N([C@H](C)CO)C[C@@H]1C,-2,3.4,i
-0.9,2,CCCN1[C@H](C(=O)NCc2ccccn2)[C@@H](CO)[C@@H]2Cn3c(ccc(C4=CCCC4)c3=O)[C@@H]21,11,4.1,i
0.7,9,CCc1nc2ccc(C(=O)N(C)C(C)C)cn2c1N(CCC(C)C)CCN(C)C,11,-2.8,i
6.7,-4,CN1c2ccc(-c3ccc(F)cc3)cc2[C@H]2[C@H](CCN2C(=O)c2ccccn2)[C@@H]1CO,-25,14,i
7.4,2,COc1ccc(CN(C)C[C@H]2Oc3ccc(NC(=O)Nc4ccc(OC)cc4)cc3C(=O)N([C@H](C)CO)C[C@@H]2C)cc1,3,-0.6,i
-3.0,1,O=C(C(c1ccccc1)C(O)(c1ccccc1)c1ccccc1)N1CCOCC1 (stereo not given),-3,-0.4,i
-1.6,-6,O=C(C[C@H]1C[C@@H]2c3cc(NC(=O)NC4CCCC4)ccc3O[C@@H]2[C@@H](CO)O1)NCc1cccc(F)c1,-12,-1.0,i
-13,8,CCOc1ccc2[nH]c(=O)c(CN(CCCN3CCOCC3)C(=O)Nc3ccc(F)cc3)cc2c1,9,-0.1,i
-2.0,0,CN1C(=O)c2cc(NC(=O)c3ccc(F)cc3)ccc2OC[C@@H]2O[C@@H](CC(=O)NC3CCC3)CC[C@H]21,3,-2.9,i
5.8,-2,C[C@@H]1CN([C@@H](C)CO)C(=O)Cc2cc(NC(=O)C3CCCCC3)ccc2O[C@H]1CN(C)C(=O)NC1CCCCC1,1,-1.4,i
-2.7,8,CN(C)C(=O)C[C@H]1CC[C@@H]2[C@H](COc3ccc(NC(=O)C4CCCCC4)cc3C(=O)N2C)O1,-7,1.8,i
6.2,-7,C[C@H](CO)N1C[C@H](C)[C@H](CN(C)C(=O)Nc2ccc(F)cc2)Oc2c(NC(=O)Nc3cccc4ccccc34)cccc2C1=O,-4,-3.2,i
-0.1,-17,O=C(NCc1ccc(F)cc1)c1cc(C2CCCN(C(=O)CCCc3ccccc3)C2)on1 (stereo not given),-32,-1.4,i
-1.3,14,COc1ccccc1N1CCN(CC(=O)Nc2cc(C)nn2-c2nc(C)cc(C)n2)CC1,12,10,i
-1.0,-15,COc1ccc(Cl)cc1Cn1c(C)c(C(=O)N(C)Cc2ccc(F)cc2)sc1=O,-19,-14,i
-0.4,0,COc1ccccc1S(=O)(=O)N[C@H]1C=C[C@@H](CC(=O)N2CCN(C)CC2)O[C@@H]1CO,2,-2.2,i
-6.5,9,CN1C(=O)[C@@]2(O[C@H]3[C@H]4C=C[C@@H]([C@H]5C(=O)N(Cc6ccccc6)C(=O)[C@@H]45)N3C3=C2C(=O)CC3)c2ccccc21,12,0.6,i
-1.4,3,O=C(C[C@H]1CC[C@@H](NC(=O)Nc2cc(F)ccc2F)[C@H](CO)O1)Nc1ccccc1,0,-0.6,i
-6.0,-2,COc1ccc(N=[N+]([O-])c2ccc(OC)cc2)cc1,0,-0.4,i
1.4,-5,C[C@H](CO)N1C[C@H](C)[C@H](CN(C)C(=O)Cc2ccccc2)OCCCC[C@H](C)Oc2ccc(NS(=O)(=O)c3ccccc3)cc2C1=O,-7,1.0,i
4.1,-2,COc1cccc(C#Cc2ccc3c(c2)O[C@H](CN(C)C(C)=O)[C@H](C)CN([C@H](C)CO)S3(=O)=O)c1,-12,3.9,i
-2.1,2,Cc1noc(C)c1S(=O)(=O)N(C)C[C@H]1Oc2ccc(NS(=O)(=O)c3cn(C)cn3)cc2CC(=O)N([C@H](C)CO)C[C@@H]1C,5,-2.5,i

The closing 4 records of the part above open the next one.
AF4-AF9 inh,Ecoli rRNA inh,molecule,Ecoli rRNA inh OD600,Ecoli rRNA inh RFP,FGF22 binding
-6.0,-2,COc1ccc(N=[N+]([O-])c2ccc(OC)cc2)cc1,0,-0.4,i
1.4,-5,C[C@H](CO)N1C[C@H](C)[C@H](CN(C)C(=O)Cc2ccccc2)OCCCC[C@H](C)Oc2ccc(NS(=O)(=O)c3ccccc3)cc2C1=O,-7,1.0,i
4.1,-2,COc1cccc(C#Cc2ccc3c(c2)O[C@H](CN(C)C(C)=O)[C@H](C)CN([C@H](C)CO)S3(=O)=O)c1,-12,3.9,i
-2.1,2,Cc1noc(C)c1S(=O)(=O)N(C)C[C@H]1Oc2ccc(NS(=O)(=O)c3cn(C)cn3)cc2CC(=O)N([C@H](C)CO)C[C@@H]1C,5,-2.5,i
-1.2,2,Cc1ccc(S(=O)(=O)Nc2ccc3c(c2)C(=O)N([C@@H](C)CO)C[C@H](C)[C@H](CN(C)S(=O)(=O)c2cn(C)cn2)O3)cc1,1,-0.7,i
-5.4,-4,COc1ccc(S(=O)(=O)N(C)C[C@@H]2Oc3ccc(NC(=O)C4CCCCC4)cc3C(=O)N([C@@H](C)CO)C[C@H]2C)cc1,-7,-1.1,i
4.9,-1,Cc1noc(C)c1NC(=O)N(C)C[C@@H]1OCCCC[C@@H](C)Oc2ccc(NS(=O)(=O)c3ccc(F)cc3)cc2C(=O)N([C@H](C)CO)C[C@H]1C,-3,-0.7,i
-2.7,-1,COc1ccc(CNC(=O)C[C@@H]2C=C[C@@H](NC(=O)c3cccc(F)c3)[C@@H](CO)O2)cc1,1,-4.1,i
-1.4,23,CCC(c1nnnn1-c1ccc2c(c1)OCCO2)N1CCN(C(=O)C2CCCO2)CC1 (stereo not given),12,2.5,i
3.8,-7,C[C@@H]1CCCCO[C@@H](CN(C)Cc2ccc(Cl)c(Cl)c2)[C@H](C)CN([C@H](C)CO)C(=O)c2cc(NC(=O)Nc3ccc4c(c3)OCO4)ccc2O1,1,-2.0,i
-1.5,0,O=C(N[C@@H]1CC[C@H](CC(=O)N2CCCCC2)O[C@H]1CO)c1cccc(F)c1,9,-3.5,i
2.6,-38,Cc1ccc(-c2ccc([C@H]3[C@@H](CO)N4CCCCN(S(=O)(=O)c5ccccc5C)C[C@H]34)cc2)cc1,-35,6.3,i
0.0,5,COCCNc1nc(NCc2ccccc2)nc2ccsc12,-12,-10,i
2.7,1,C[C@@H]1CCCCO[C@@H](CN(C)C(=O)Nc2ccc3c(c2)OCO3)[C@H](C)CN([C@@H](C)CO)C(=O)c2cc(NC(=O)Nc3ccc4c(c3)OCO4)ccc2O1,-3,-2.1,i
10,-9,CO[C@H]1CN(C)C(=O)c2ccc(NC(=O)c3cccc(Oc4ccccc4)c3)cc2OC[C@@H](C)NC[C@@H]1C,0,24,i
9.9,-1,Cc1noc(C)c1NC(=O)NCC[C@H]1CC[C@H](NC(=O)Nc2cccc(F)c2)[C@H](CO)O1,-3,-1.4,i
1.1,-6,Cc1noc(C)c1S(=O)(=O)Nc1ccc2c(c1)CC(=O)N([C@H](C)CO)C[C@@H](C)[C@@H](CN(C)Cc1ccc(C(F)(F)F)cc1)O2,-29,3.7,i
-1.5,1,Cc1noc(C)c1NC(=O)Nc1ccc2c(c1)C(=O)N([C@H](C)CO)C[C@@H](C)[C@H](CN(C)S(=O)(=O)c1cn(C)cn1)OCCCC[C@@H](C)O2,-7,-1.8,i
7.9,-60,Cc1ccc(S(=O)(=O)Nc2ccc3ccccc3c2)cc1,-77,-15,i
-2.0,0,CO[C@H]1CN(C)C(=O)c2cc(NC(=O)c3ccc4c(c3)OCO4)ccc2OC[C@H](C)N(CC2CC2)C[C@@H]1C,-7,-2.3,i
3.8,7,N#C/C(=C\c1cccn1S(=O)(=O)c1cccc(C#N)c1)S(=O)(=O)c1ccc(F)cc1,2,35,i
-0.3,6,Cc1ccc(S(=O)(=O)N2C(c3ccccc3)CC(=O)C3CN(S(=O)(=O)c4ccc(Cl)cc4)C(c4ccccc4)CC32)cc1 (stereo not given),15,-2.0,i
-4.3&-2.4&-1.0,0&-1,C[C@@H]1CN([C@@H](C)CO)C(=O)CCCn2nncc2CO[C@H]1CN(C)C(=O)Nc1ccc2c(c1)OCO2,5&6,-1.5&-1.2,i
-3.1,1,O=C(O)C[C@H]1C[C@@H]2c3cc(NC(=O)Nc4ccc(F)cc4)ccc3O[C@@H]2[C@H](CO)O1,7,-2.2,i
-1.4,-2,C[C@@H]1CN([C@@H](C)CO)C(=O)Cc2cc(NC(=O)Nc3ccc(F)cc3)ccc2O[C@@H]1CN(C)C(=O)NC1CCCCC1,-13,0.5,i
-3.7,-1,C[C@@H]1CCCCO[C@@H](CN(C)Cc2ccc(Cl)c(Cl)c2)[C@H](C)CN([C@@H](C)CO)C(=O)c2cc(NC(=O)Nc3cccc4ccccc34)ccc2O1,5,0.3,i
0.1&-4.0,6&4,COc1ccccc1S(=O)(=O)N(C)C[C@@H]1OCc2cnnn2CCCC(=O)N([C@H](C)CO)C[C@@H]1C,0&2,-2.0&-0.6,i
2.8,-7,COc1ccc(S(=O)(=O)N[C@@H]2C=C[C@H](CC(=O)N3CCC(Cc4ccccc4)CC3)O[C@H]2CO)cc1,-13,5.3,i
-2.4,11,Cc1cc(NC(=O)COC(=O)[C@H](Cc2ccccc2)NC(=O)c2ccco2)no1,10,2.5,i
-1.1,1,CCNC(=O)[C@H]1[C@H](CO)[C@H]2Cn3c(ccc(-c4ccccc4)c3=O)[C@H]2N1CC1CC1,4,2.2,i
2.1,-4,C[C@@H]1CN([C@@H](C)CO)C(=O)Cc2cc(NC(=O)CCN3CCOCC3)ccc2O[C@@H]1CN(C)Cc1ccc(C(F)(F)F)cc1,-11,-2.4,i
2.2,-4,Cc1ccc(-c2nn(-c3ccccc3)cc2C(=O)Nc2cccc(S(=O)(=O)NC3=NCCC3)c2)cc1,-1,6.6,i
-7.6,12,CCOC(=O)[C@]12CCC=C1N(CCC1=CCCCC1)C(=O)[C@H](CC(=O)NCCCN1CCCC1=O)C2,8,0.6,i
0.6,-39,O=C1c2cc(Cl)ccc2-c2c(O)cc(Cl)cc21,-60,-14,i
2.3,0,CSc1nc(N)nc2c1ncn2CC(=O)NCC(c1ccccc1)c1ccccc1,-3,2.8,i
-30,-7,O=C(O)c1cccc2c1C(=O)N(c1ccc3c(c1)Cc1ccccc1-3)C2=O,-6,-3.2,i
2.3,1,CO[C@H]1CN(C)C(=O)c2cc(NC(=O)NC(C)C)ccc2OC[C@@H](C)N(Cc2ccc(-c3ccccn3)cc2)C[C@H]1C,0,-0.5,i
-2.0,0,COc1ccc(NC(=O)N[C@@H]2CC[C@@H](CCNC(=O)c3ccccc3F)O[C@@H]2CO)cc1,-5,-0.9,i
2.2,0,COc1ccc(NC(=O)Nc2ccc3c(c2)C(=O)N([C@@H](C)CO)C[C@@H](C)[C@@H](CN(C)C(=O)Cc2ccccc2)OCCCC[C@H](C)O3)cc1,-2,2.5,i
-0.3,-7,O=C1c2ccccc2C(=O)N1CCCc1cn(C[C@H]2CC[C@H](Cn3cc(CCCN4C(=O)c5ccccc5C4=O)nn3)O2)nn1,-15,3.5,i
6.4,-11,O=C(CNC(=O)c1ccc(Br)o1)Nc1ccc(N2CCCCCC2)cc1,-22,5.9,i
1.0,-2,Cc1noc(C)c1NC(=O)Nc1ccc2c(c1)C(=O)N(C)[C@@H]1CC[C@H](CC(=O)N[C@@H]3CCN(Cc4ccccc4)C3)O[C@H]1CO2,4,-2.1,i

An excerpt from above in order of length of the SMILES, ascending.
AF4-AF9 inh,Ecoli rRNA inh,molecule,Ecoli rRNA inh OD600,Ecoli rRNA inh RFP,FGF22 binding
2.3,1,CO[C@H]1CN(C)C(=O)c2cc(NC(=O)NC(C)C)ccc2OC[C@@H](C)N(Cc2ccc(-c3ccccn3)cc2)C[C@H]1C,0,-0.5,i
1.0,-2,Cc1noc(C)c1NC(=O)Nc1ccc2c(c1)C(=O)N(C)[C@@H]1CC[C@H](CC(=O)N[C@@H]3CCN(Cc4ccccc4)C3)O[C@H]1CO2,4,-2.1,i
2.2,0,COc1ccc(NC(=O)Nc2ccc3c(c2)C(=O)N([C@@H](C)CO)C[C@@H](C)[C@@H](CN(C)C(=O)Cc2ccccc2)OCCCC[C@H](C)O3)cc1,-2,2.5,i
